Assay outcomes from PubChem.
NOMO-1 viab – STK33 inhibitor candidate reducing NOMO-1 cell viability; 7.5% of 37,000 active; AID 2330; inhibition, % (test concentration not listed); NOMO-1 AML viability, CellTiter-Glo luminescence, 72 h;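 active means most replicates above 80%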;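 further: wells of about 30 µL received 25 nL stock; 0% = median of vehicle wells and 100% = reference inhibitor level; the first replicate is given; inactives centre near 10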
Starred values were filed as active, the others as inactive.

Molecule,NOMO-1 viab
CC(=O)O[C@@H]1[C@@H](O)[C@H](C)O[C@@H](O[C@H]2[C@@H]3C=CO[C@@H](O[C@@H]4O[C@H](CO)[C@@H](O)[C@H](O)[C@H]4O)[C@@H]3[C@@]3(CO)O[C@@H]23)[C@@H]1OC(=O)/C=C/c1ccccc1,-8
Cc1c(O)ccc(-c2[nH]ncc2-c2nncn2-c2ccccc2)c1O,-32
CCc1cc(C)cc(OCC(O)Cn2cnc3ccccc32)c1 (configuration not stated),51
O=C(Nc1ccccc1)c1cc(S(=O)(=O)Nc2ccccn2)ccc1Br,-3
COc1ccccc1CCNC(=O)c1cnn2c(C(F)F)cc(C)nc12,7
Cc1nc(=O)c(-c2ccccc2)c(C)n1-c1ccc(C(=O)O)cc1,1
O=C(CSc1ccc2ccccc2n1)c1ccc2c(c1)OCCO2,28
C[C@H]1CN([C@@H](C)CO)C(=O)c2cccc(NC(=O)c3nc4ccccc4s3)c2O[C@@H]1CN(C)Cc1ccc2c(c1)OCO2,57
COc1ccc(NC(=O)Nc2ccc3c(c2)CC(=O)N([C@@H](C)CO)C[C@@H](C)[C@@H](CN(C)S(C)(=O)=O)O3)cc1,-4
C[C@H]1CN([C@@H](C)CO)C(=O)c2cccc(NC(=O)c3nc4ccccc4s3)c2O[C@@H]1CN(C)CC1CC1,1
c1nc(NCC2CCCO2)c2sc3nc(N4CCCCC4)c4c(c3c2n1)CCCC4 (configuration not stated),36
O=C1NC(Cc2c[nH]c3ccccc23)C(=O)N2CCCC12 (configuration not stated),15
C[C@@H]1CCCCO[C@@H](CN(C)Cc2ccc(C(=O)Nc3ccccc3N)cc2)[C@@H](C)CN([C@H](C)CO)C(=O)c2cc(NC(=O)C3CCCCC3)ccc2O1,123*
CC(C)NC(=O)Nc1ccc2c(c1)C(=O)N([C@@H](C)CO)C[C@@H](C)[C@@H](CN(C)C(=O)Nc1ccc(C(F)(F)F)cc1)O2,-8
Cc1cc(C(=O)Nc2cccc3c2O[C@H](CN(C)S(=O)(=O)c2cn(C)cn2)[C@H](C)CN([C@H](C)CO)C3=O)n(C)n1,-1

Next part, overlapping the part above by 5 compounds.
Molecule,NOMO-1 viab
c1nc(NCC2CCCO2)c2sc3nc(N4CCCCC4)c4c(c3c2n1)CCCC4 (configuration not stated),36
O=C1NC(Cc2c[nH]c3ccccc23)C(=O)N2CCCC12 (configuration not stated),15
C[C@@H]1CCCCO[C@@H](CN(C)Cc2ccc(C(=O)Nc3ccccc3N)cc2)[C@@H](C)CN([C@H](C)CO)C(=O)c2cc(NC(=O)C3CCCCC3)ccc2O1,123*
CC(C)NC(=O)Nc1ccc2c(c1)C(=O)N([C@@H](C)CO)C[C@@H](C)[C@@H](CN(C)C(=O)Nc1ccc(C(F)(F)F)cc1)O2,-8
Cc1cc(C(=O)Nc2cccc3c2O[C@H](CN(C)S(=O)(=O)c2cn(C)cn2)[C@H](C)CN([C@H](C)CO)C3=O)n(C)n1,-1
Cc1ccc(NC(=O)COc2ccccc2)c(NC(=O)c2ccccc2C)c1,16
COc1ccc(NC(=O)Nc2ccc3c(c2)C(=O)N([C@H](C)CO)C[C@H](C)[C@@H](CN(C)Cc2ccncc2)O3)cc1,-7
CN1CCN(CCCn2c(-c3ccccc3)cn3c4ccccc4nc23)CC1,-12
C[C@@H]1CN([C@H](C)CO)C(=O)c2cc(NC(=O)C3CCCCC3)ccc2O[C@H]1CN(C)C(=O)Nc1ccc(C(F)(F)F)cc1,11
COc1ccc(S(=O)(=O)Nc2ccc3c(c2)CC(=O)N([C@@H](C)CO)C[C@H](C)[C@H](CN(C)S(C)(=O)=O)O3)cc1,11
COC(=O)c1cc(NC(=O)COc2ccc(I)cc2)cc(C(=O)OC)c1,10
C[C@H](CO)N1C[C@H](C)[C@@H](CN(C)Cc2ccc(-c3ccccc3)cc2)Oc2ccc(NC(=O)CCN3CCOCC3)cc2C1=O,17
O=c1ccc2ccc(O)c(O)c2o1,-10
CC(=O)O[C@@H]1CC2C(C)(C)[C@H](O)C[C@H](O)[C@]2(C)C2CC[C@@]3(C)[C@H](c4ccoc4)OC(=O)[C@H]4O[C@]43[C@@]21C (some centres not stated),27
C[C@H](CO)N1C[C@H](C)[C@H](CN(C)C(=O)Nc2ccc3c(c2)OCO3)Oc2ccc(NC(=O)c3ccncc3)cc2C1=O,7
COc1ccc(CN(C)C[C@H]2Oc3ccc(NS(=O)(=O)c4ccc(Cl)cc4)cc3CC(=O)N([C@@H](C)CO)C[C@H]2C)cc1,41
Cc1c(Cl)cccc1NC(=O)Cn1cnc2sc(C(=O)Nc3ccccc3)c(C)c2c1=O,10
CC(C)CCCC(C)(O)c1ccc(C(=O)O)cc1O (configuration not stated),-1
Cc1ccc(S(=O)(=O)Nc2ccc3c(c2)C(=O)N([C@H](C)CO)C[C@@H](C)[C@@H](CN(C)Cc2ccc(Cl)c(Cl)c2)O3)cc1,72
Cc1cc(Nc2ccc(F)c(Cl)c2)nc(NC(=O)C(C)(C)C)n1,22

Fetched one by one from the list above, two records:
Molecule,NOMO-1 viab
CN1CCN(CCCn2c(-c3ccccc3)cn3c4ccccc4nc23)CC1,-12
Cc1cc(Nc2ccc(F)c(Cl)c2)nc(NC(=O)C(C)(C)C)n1,22

Next section.
Molecule,NOMO-1 viab
COc1ccc(OC)c(S(=O)(=O)N(C)CC(=O)N2CCN(c3cccc(Cl)c3)CC2)c1,-18
COc1cccc(OCC(=O)Nc2ccc(Sc3ccc([N+](=O)[O-])cc3)cc2)c1,25
C[C@@H]1CN([C@@H](C)CO)C(=O)c2cc(NC(=O)Cn3cnnn3)ccc2O[C@@H]1CN(C)S(=O)(=O)c1cccs1,8
CCOC(=O)CSc1nnc(-c2ccccc2)c(=O)n1-c1ccccc1,45
COc1cc([N+](=O)[O-])ccc1NC(=O)CSc1ncccn1,14
CC(C)NC(=O)Nc1cccc2c1O[C@@H](CN(C)C(=O)Nc1ccc3c(c1)OCO3)[C@@H](C)CN([C@@H](C)CO)C2=O,9
C[C@H](CO)N1C[C@H](C)[C@@H](CN(C)C(=O)Nc2cccc3ccccc23)Oc2c(NC(=O)C3CCOCC3)cccc2C1=O,-6
C[C@H]1CN([C@@H](C)CO)C(=O)Cc2cc(NC(=O)C3CC3)ccc2O[C@H]1CN(C)Cc1ccc(Cl)c(Cl)c1,37
O=C(CN1CCCCC1)Nc1sc2c(c1C(=O)Nc1ccc(Cl)cc1)CCC2,9
COc1ccc(NC(=O)CN(c2ccc(F)c(Cl)c2)S(C)(=O)=O)c(OC)c1,25
COCCNS(=O)(=O)c1cc(F)ccc1OC,5
Cc1ccc(S(=O)(=O)Nc2ccc3c(c2)C(=O)N([C@H](C)CO)C[C@H](C)[C@@H](CN(C)S(C)(=O)=O)O3)cc1,0
CC(C)NC(=O)Nc1ccc2c(c1)CC(=O)N([C@@H](C)CO)C[C@@H](C)[C@@H](CN(C)S(=O)(=O)c1ccc(Cl)cc1)O2,60
CC(C)c1cc(C(=O)N2CCOCC2)c(NC(=O)c2cc(-c3cccnc3)nc3ccc(Br)cc23)s1,6
Cc1nc2nc[nH]n2c(=O)c1NS(=O)(=O)c1ccc(Br)cc1,-2

The results go on.
SMILES | NOMO-1 viab
O=C(COc1ccc(C(=O)Nc2ccccc2Cl)cc1)Nc1ccccc1C(F)(F)F | 8
CC(C)NC(=O)N(C)C[C@@H]1Oc2ccc(NS(=O)(=O)c3ccccc3)cc2C(=O)N([C@H](C)CO)C[C@@H]1C | -17
C[C@H]1CN([C@@H](C)CO)C(=O)Cc2cc(NC(=O)Cn3cnnn3)ccc2O[C@H]1CN(C)Cc1ccc(C(=O)Nc2ccccc2N)cc1 | 71
COc1ccc(NC(=O)N(C)C[C@@H]2Oc3c(NC(=O)c4nc5ccccc5s4)cccc3C(=O)N([C@@H](C)CO)C[C@@H]2C)cc1 | 34
CC(=O)Oc1cccc(C(=O)O)c1OC(C)=O | 0
C[C@@H]1CN([C@@H](C)CO)C(=O)c2cc(NS(=O)(=O)c3cn(C)cn3)ccc2O[C@@H]1CN(C)S(C)(=O)=O | 20
CC(C)NC(=O)N(C)C[C@@H]1OCCCC[C@@H](C)Oc2ccc(NC(=O)C3CCCCC3)cc2C(=O)N([C@H](C)CO)C[C@@H]1C | 12
C[C@@H]1CN([C@H](C)CO)C(=O)Cc2cc(NC(=O)NC3CCCCC3)ccc2O[C@@H]1CN(C)C(=O)Nc1ccc(F)cc1 | 4
C[C@@H]1CCCCO[C@H](CN(C)C(=O)Nc2ccccc2)[C@@H](C)CN([C@H](C)CO)C(=O)c2cc(NC(=O)Nc3ccc(C(F)(F)F)cc3)ccc2O1 | 47
COc1ccc(CN(C)C[C@H]2Oc3c(NS(=O)(=O)c4cn(C)cn4)cccc3C(=O)N([C@@H](C)CO)C[C@@H]2C)cc1 | -7
C[C@H]1CN([C@@H](C)CO)C(=O)c2cc(NC(=O)CCCCCC(=O)Nc3ccccc3N)ccc2O[C@@H]1CN(C)S(=O)(=O)c1ccccc1 | 5
Cc1ccc(S(=O)(=O)N(C)C[C@@H]2Oc3ccc(NS(=O)(=O)c4ccc(F)cc4)cc3CC(=O)N([C@H](C)CO)C[C@H]2C)cc1 | -6
O=C(CN1C(=O)c2ccccc2S1(=O)=O)Nc1ccc(Cl)cc1 | -15
C[C@H](CO)N1C[C@H](C)[C@@H](CN(C)Cc2ccccc2)Oc2ccc(N(C)C)cc2C1=O | 11
C[C@@H]1CN([C@H](C)CO)C(=O)c2cccc(NC(=O)Nc3ccc(C(F)(F)F)cc3)c2O[C@H]1CN(C)C(=O)Nc1cccc2ccccc12 | 83*
COc1ccc(C)cc1S(=O)(=O)N(C)CC(=O)Nc1ccc(F)cc1 | 14
Cc1noc(C)c1NC(=O)Nc1cccc2c1O[C@@H](CN(C)C(=O)Nc1ccc(F)cc1)[C@H](C)CN([C@@H](C)CO)C2=O | 10
CS(=O)(=O)CS(=O)(=O)C1=C(N2CCOCC2)C2CCN1CC2 | 14
CC(O)(C(=O)Nc1ccc(S(=O)(=O)c2ccccc2)cc1)C(F)(F)F (configuration not stated) | 38
C[C@@H]1CN([C@@H](C)CO)C(=O)c2cc(N(C)C)ccc2O[C@@H]1CN(C)C(=O)Nc1ccccc1 | -3
COc1ccc(NC(=O)c2ccc(N(C)S(=O)(=O)c3ccc(OC)c(OC)c3)cc2)c(OC)c1 | 37
Cc1cc(C)c(S(=O)(=O)NCCN2CCN(S(=O)(=O)c3c(C)cc(C)cc3C)CC2)c(C)c1 | 38
COc1ccc(N(CC(=O)Nc2ccc(Cl)c(Cl)c2)S(C)(=O)=O)cc1OC | 24
COc1ccc(Cl)cc1NC(=S)NCCCN1CCCC1=O | 8
C[C@@H]1CN([C@H](C)CO)C(=O)c2cc(NC(=O)Nc3ccc4c(c3)OCO4)ccc2O[C@@H]1CN(C)Cc1ccc(C(F)(F)F)cc1 | 51
Cc1ccc(S(=O)(=O)Nc2ccc3c(c2)CC(=O)N([C@H](C)CO)C[C@@H](C)[C@@H](CN(C)S(=O)(=O)c2cccs2)O3)cc1 | 26
CN(C)CCNc1nc(-c2noc(NCCN(C)C)n2)no1 | -31
C[C@H]1CN([C@@H](C)CO)C(=O)Cc2cc(NS(=O)(=O)c3ccccc3)ccc2O[C@H]1CN(C)Cc1ccc(Cl)c(Cl)c1 | 100*
Cc1ccc(S(=O)(=O)N(C)C[C@H]2Oc3ccc(NC(=O)C4CCCCC4)cc3C(=O)N([C@H](C)CO)C[C@@H]2C)cc1 | 8
C[C@H](CO)N1C[C@H](C)[C@@H](CN(C)S(=O)(=O)c2cn(C)cn2)Oc2c(NS(=O)(=O)c3cccs3)cccc2C1=O | 16
C[C@@H]1CN([C@H](C)CO)C(=O)Cc2cc(NC(=O)c3ccncc3)ccc2O[C@@H]1CN(C)C(=O)NC1CCCCC1 | 15
CC(C)NC(=O)Nc1ccc2c(c1)CC(=O)N([C@H](C)CO)C[C@H](C)[C@H](CN(C)C)O2 | 7
C[C@@H]1CN([C@@H](C)CO)C(=O)c2cccc(NS(=O)(=O)c3cn(C)cn3)c2O[C@@H]1CN(C)S(=O)(=O)c1ccccc1 | 9
C[C@@H]1CN([C@H](C)CO)C(=O)c2cccc(NS(=O)(=O)c3ccc(F)cc3)c2O[C@H]1CN(C)S(=O)(=O)c1cn(C)cn1 | -3
Cc1noc(C)c1NC(=O)Nc1ccc2c(c1)CC(=O)N([C@@H](C)CO)C[C@H](C)[C@H](CN(C)S(=O)(=O)c1cccs1)O2 | -3
COc1cc2c(NC(C)=O)c(CN(C)C)oc2c(Cl)c1Cl | 22
CNC[C@@H]1OCCCC[C@@H](C)Oc2ccc(NC(=O)Nc3ccc(OC)cc3)cc2C(=O)N([C@H](C)CO)C[C@@H]1C | 2
CC(=O)Nc1ccc(NC(=O)CN(C2CCCCC2)S(C)(=O)=O)cc1 | 16
C[C@H](CO)N1C[C@H](C)[C@@H](CN(C)Cc2ccncc2)Oc2c(cccc2N(C)C)C1=O | 0
Cc1cccc(NC(=O)CSc2nc3ncnc(N)c3[nH]2)c1 | 9
C[C@@H]1CN([C@H](C)CO)C(=O)c2cc(NC(=O)Nc3ccc(C(F)(F)F)cc3)ccc2O[C@@H]1CN(C)Cc1ccc(C(=O)O)cc1 | 10
O=C(Nc1ccccc1C(=O)N1CCN(CCO)CC1)c1cccc([N+](=O)[O-])c1 | 4
Cc1cc(C)cc(N(CC(=O)Nc2ccc(Br)c(Cl)c2)S(C)(=O)=O)c1 | 15
COc1ccc(-c2cc(C(F)(F)F)nc(SCC(=O)Nc3cc(F)ccc3C)n2)cc1OC | 40
Cc1ccc(C(=O)NC2(C(F)(F)F)C(=O)N(Cc3ccccn3)C3=C2C(=O)CC(C)(C)C3)cc1 (configuration not stated) | -4
C[C@@H]1CCCCO[C@@H](CN(C)C(=O)c2ccncc2)[C@@H](C)CN([C@H](C)CO)C(=O)c2cc(NS(=O)(=O)c3cn(C)cn3)ccc2O1 | 5

Not all compounds are listed (hit frequency here may not be typical).
